Assay outcomes from PubChem BioAssay.
AID504770 = growth inhibition of E. coli YBA685, primary screen, V. cholerae RctB inhibitors; E. coli YBA685 rctB-dependent plasmid, OD600 growth, 3 h; active compounds read low; 130,000 compounds, 0.27% hits; AID 504770, 2011; z-score (concentration not given with the values);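 active means z-score under -2 on both plates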;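 further: wells of about 30 µL received 100 nL stock; score is relative to mean and SD of the test wells; the first replicate is given; strong numbers were not always called active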
CapD inh = Bacillus anthracis CapD inhibitors, primary screen, biochemical, fluorescence intensity; AID 492967, 2010; purified CapD enzyme, fluorescence intensity read-out; active compounds read low; some hits fall short of the stated cut; 140,000 compounds, 0.23% hits; z-score (concentration not given with the values);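 active means z-score under -4 in either of two replicates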;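 further: stock transfer was 100 nL into about 40 µL; score is relative to mean and spread of the plate; one replicate is shown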
* marks the source's active call; other numbers are inactive results; nt = no result given. These rows are one share of the data; the hit share may differ from the screen's.

no.	mol	AID504770	CapD inh
1	COc1ccccc1/C=C/C=N\NC(=O)Cc1cccn1C	1.5	0.32
2	O=C1C2C3C=CC(C3)C2C(=O)N1Cc1ccccc1Cl (stereo not drawn)	1.2	-0.35
3	O=S(=O)(NC1CCN(Cc2ccc3ccccc3c2)C1)c1cc(C(F)(F)F)cc(C(F)(F)F)c1 (stereo not drawn)	nt	0.15
4	CCCNC(=O)c1ccc(COc2ccc3ccccc3c2)cc1	-0.1	-0.29
5	O=C1/C(=C/c2cccnc2)SC(=S)N1c1ccc2c(c1)OCCO2	0.25	-0.045
6	Cc1nn(C)c(C)c1Cc1ccc(O)cc1	-0.8	-0.42
7	Cc1c(N(CC(=O)N/N=C/c2ccccc2Cl)S(=O)(=O)c2ccccc2)c(=O)n(-c2ccccc2)n1C	nt	-0.58
8	FC(F)(F)c1ccc(C2=NCCc3sccc32)cc1	0.1	1.2
9	CCc1ccc(NC(=O)COC(=O)C2CCN(c3nc4ccccc4o3)CC2)cc1	0.15	nt
10	CCN(CC)c1ccc(C(=O)OCC(=O)N2C(C)CCCC2C)cc1 (stereo not drawn)	0.6	-0.12
11	O=C(NCCCN1CCCC1=O)c1cccnc1	-0.4	0.52
12	CC(=O)Oc1cc(OC(C)=O)cc(C(=O)O)c1	nt	-8.7*
13	COc1ccc(-n2c(C)nsc2=NC(=Nc2ccc(C)cc2)c2ccccc2)cc1	nt	0.44
14	CCc1cccc(CC)c1N(COC)C(=O)Cn1c(C(C)O)nc2ccccc21 (stereo not drawn)	-0.2	-0.14
15	CN(C)c1ccc(CN2CCCCC2COC(=O)N2CCN(C(=O)OCc3ccccc3)CC2)cc1 (stereo not drawn)	nt	-0.82
16	CC(C)c1ccc(-c2nn(-c3ccccc3)cc2C(=O)Oc2ccc(-c3nnco3)cc2)cc1	-0.6	nt
17	CSc1ncc(C(=O)OCC(=O)c2ccc(NS(C)(=O)=O)cc2)n1-c1ccccc1	0.05	nt
18	CCCCN(CC)C(=O)c1nn(-c2ccc(OC)cc2)c(=O)c2ccccc12	-0.2	0.97
19	COC(=O)C1=C(C)C(c2cccc(Oc3ccccc3)c2)NC(=O)N1 (stereo not drawn)	-0.05	nt
20	Cc1cc(N2CCN(c3ccccc3)CC2)n2nc(C)c(-c3ccc(Cl)cc3)c2n1	0.4	-0.6
21	O=C(Nc1ccccc1)Nc1cccc(F)c1	-0.8	0.11
22	COc1ccc(CCNC(=O)Cn2ccc3ccccc3c2=O)cc1OC	nt	0.88
23	CN(C(=O)COC(=O)c1ccccc1O)C1(C#N)CCCCC1	-0.95	nt
24	CS(=O)c1ccccc1COC(=O)Nc1cc(Cl)cc(Cl)c1 (stereo not drawn)	nt	-0.31
25	Cc1ccc(CS(=O)(=O)Cc2ccc(C(=O)N3CCc4ccccc4C3)o2)cc1	0.35	-1.1
26	CNc1c(NC(=O)c2ccccc2OC)c(=O)oc2ccccc12	-0.9	0.5
27	CC1=NN(C)c2nc3c(c(=O)n(C)c(=O)n3C)n2C1	-0.4	nt
28	CC(C#N)(NC(=O)CN1CCN(C/C=C/c2ccccc2)CC1)C1CC1 (stereo not drawn)	-1.4	nt
29	CC(C)CNc1oc(-c2ccccc2)nc1C#N	-1.1	91
30	CCCSc1nc(=O)c2cccnc2n1-c1ccc(OC)cc1	2	-0.075

Additional results follow:
no.	mol	AID504770	CapD inh
31	O=C(CCCn1c(=O)c2ccc(Cl)cc2n(CC(=O)c2ccc(Cl)cc2)c1=O)NCc1ccco1	-0.4	0.35
32	CCOC(=O)C1=C(C)NC(C)=C(C(=O)OCC)C1C(=O)OCc1cn2cc(Cl)ccc2n1	-0.6	nt
33	COc1ccc(N2C(=O)/C(=C/c3ccc([N+](=O)[O-])cc3)C=C2c2ccccc2)cc1	nt	0.17
34	O=C(O)Cc1noc2ccccc12	nt	-0.8
35	O=C(OCCN1C(=O)c2ccccc2C1=O)c1ccccc1O	-0.55	nt
36	Cn1ccsc1=NC(=O)/C=C/c1ccc2c(c1)OCO2	-0.1	nt
37	O=C(CN1CCN(S(=O)(=O)c2cccs2)CC1)Nc1ccc(S(=O)(=O)N2CCCC2)cc1	-0.3	nt
38	COc1cc2c(cc1OC)CN(Cc1cccs1)CC2	-1	1.9
39	O=S(=O)(c1ccc(Sc2nnc3ccccn23)nc1)N1CCCC1	0.3	nt
40	N#CCSc1nnc(NC(=O)c2ccccc2)s1	-0.55	-1.1
41	CC1(C)CC(NC(=O)CC2CCCCC2)CC(C)(C)N1	0.25	0.14
42	Cc1ccc(CNC(=O)CS(=O)Cc2nc(-c3cccc(C)c3)oc2C)cc1 (stereo not drawn)	-0.6	-0.22
43	CCOc1ccc(C(=O)OCC#N)cc1OCC	-1	nt
44	COc1ccc(NC(=O)Nc2ccc(CN3CCCCC3)cc2)cc1	-0.2	-0.1
45	COc1ccc(C2C3=C(CC(C)(C)CC3=O)OC3=C2C(=O)CC(C)(C)C3)cc1[N+](=O)[O-]	nt	-0.075
46	COc1ccc(C2=CC(=O)N(Nc3ccc(Cl)cc3Cl)C2=O)cc1	nt	-0.035
47	COc1cccc(/C=C/C(=O)NCc2csc(-c3ccccc3)n2)c1	1.8	2.3
48	O=C(Sc1nc2ccccc2o1)c1cccc(Cl)c1	0.15	-0.08
49	CC(C)Oc1cccc(NC(=O)c2cc3cccnc3nc2C(F)(F)F)c1	nt	-0.46
50	CCOc1ccc(/C(O)=C/C(=O)C(=O)OC)cc1	1.5	-2.1
51	NC(=O)Cc1nc(-c2ccccc2)cs1	-1	-0.75
52	CCC(C)C(=O)N1CCN(c2cccc(Cl)c2)CC1 (stereo not drawn)	0.25	0.41
53	COc1ccc(C(=O)N2c3ccccc3N3C(c4c(C)c(C)c(Cl)c(C)c4C)=NON23)cc1	nt	-0.34
54	COC(=O)c1ccc(OC(=O)CCn2ccc3ccccc32)cc1	-0.65	nt
55	Clc1ccc(OCCN2CCCC2)c2ccccc12	1.6	2.1
56	Cc1cccc(-c2nc(-c3ccccc3)c(-c3ccc(Cl)cc3)[nH]2)c1	nt	-0.35
57	Cc1oc2cc(OC(=O)N3CCOCC3)ccc2c(=O)c1-c1ccc(Br)cc1	-0.85	0.53
58	N#CCC(=O)Nc1ccc(C(=O)Nc2cccc(Cl)c2)cc1	-0.45	nt
59	CCOC(=O)N1CCC(NC(=O)CCC(=O)N2CC(C)Oc3ccc(Cl)cc32)CC1 (stereo not drawn)	-0.3	-0.075
60	O=c1[nH]cc(S(=O)(=O)N(Cc2ccccc2)Cc2ccccc2)c(=O)[nH]1	0.25	nt

The last 5 entries of the section above are carried over, then new ones follow.
no.	mol	AID504770	CapD inh
56	Cc1cccc(-c2nc(-c3ccccc3)c(-c3ccc(Cl)cc3)[nH]2)c1	nt	-0.35
57	Cc1oc2cc(OC(=O)N3CCOCC3)ccc2c(=O)c1-c1ccc(Br)cc1	-0.85	0.53
58	N#CCC(=O)Nc1ccc(C(=O)Nc2cccc(Cl)c2)cc1	-0.45	nt
59	CCOC(=O)N1CCC(NC(=O)CCC(=O)N2CC(C)Oc3ccc(Cl)cc32)CC1 (stereo not drawn)	-0.3	-0.075
60	O=c1[nH]cc(S(=O)(=O)N(Cc2ccccc2)Cc2ccccc2)c(=O)[nH]1	0.25	nt
61	O=c1[nH]c(=S)[nH]c(O)c1C(c1ccc(F)cc1)N1CCCCC1 (stereo not drawn)	-0.15	-0.41
62	CCOC(=O)N1CCC(NC(=O)CN(C)S(=O)(=O)c2ccc3nc(C)sc3c2)CC1	0.1	-0.62
63	O=C(NC1CC1)c1c(O)c2cccc3c2n(c1=O)CC3	-1.8	nt
64	O=C(Nc1ccc(C(F)(F)F)cc1)c1cnc2ccccc2n1	-0.3	-0.82
65	CCOC(=O)/C(C#N)=N/Nc1ccc(SC(F)F)cc1	0.4	nt
66	O=C(Nc1ccccc1-c1nc2ccccc2[nH]1)c1ccc(C(=O)c2ccccc2)cc1	nt	0.4
67	O=C1CN=C(c2ccccc2)c2c(sc3c2CCCC3)N1CCN1CCOCC1	-0.75	nt
68	CCC1SC(CC)C(=O)N(CC(=O)NC2CCCCC2)C1=O (stereo not drawn)	-0.8	0.74
69	N#Cc1c(F)cccc1NCc1cccnc1	-0.25	83
70	CCOC(=O)C(C(=O)O)C1CCCCC1 (stereo not drawn)	-0.25	0.08
71	COc1ccc(C2=NCC(CSc3nnnn3C)S2)cc1 (stereo not drawn)	-0.4	nt
72	COC(=O)C1=CN(Cc2ccc(Cl)cc2)C=C(C(=O)OC)C1c1cc(OC)c(OC)c(OC)c1	nt	16
73	CCCc1oc2cc(O)ccc2c(=O)c1Oc1ccc(F)cc1	0.8	4.4
74	Cc1ccc(N2CC(=O)Nc3c(oc4nc(-c5ccccc5)cc(C)c34)C2=O)cc1	-0.75	2.8
75	COc1ccc(Br)c(-c2nc(-c3ccccc3)no2)c1	1.1	-0.79
76	COc1ccc(S(=O)(=O)c2ccc(O)cc2)cc1	-0.25	-0.07
77	Cc1nccn1CCN	0.55	nt
78	O=C1c2cccc3cccc(c23)C(=O)N1c1ccc2c(c1)OCO2	1.7	0.46
79	CS(=O)(=O)c1ccc(CCC(=O)NCc2ccccc2)cc1	nt	0.12
80	COC(=O)C1C(=O)NC(S)=C(C#N)C1c1ccccc1Cl (stereo not drawn)	-0.25	nt
81	Clc1ccc(/C=N/Nc2nc(Cl)nc3ccccc23)c(Cl)c1	nt	1.2
82	CC(CCc1ccccc1)NC(=O)CN1CCOc2ccccc21 (stereo not drawn)	-0.7	-0.25
83	c1cc2c(cc1CNC1=NCCC1)OCO2	-0.25	nt
84	COC(=O)C1=CN(CCC23CC4CC(CC(C4)C2)C3)C=C(C(=O)OC)C1c1cccc(Br)c1	nt	0.63
85	OC1(c2ccccc2)CCCCC1	nt	-0.72
86	O=C1c2ccccc2C(=O)N1CC(=O)N1c2ccccc2Sc2ccccc21	-0.4	-0.47
87	Cc1nnc(SC/C=C/c2ccccc2)[nH]c1=O	1.8	nt
88	O=C(Cn1c(=O)oc2ccccc21)N1CCC(c2ccccc2)C1 (stereo not drawn)	0.3	-1.6
89	CC1CC(C)CN(C(=O)c2cc(-c3ccccn3)nc3ccccc23)C1 (stereo not drawn)	-0.1	-0.57
90	CCn1c(=O)n(CC)c2cc(NC(=O)Cn3cnc4ccccc43)ccc21	-0.1	nt

Looked up by compound from above, two records:
no.	mol	AID504770	CapD inh
87	Cc1nnc(SC/C=C/c2ccccc2)[nH]c1=O	1.8	nt
64	O=C(Nc1ccc(C(F)(F)F)cc1)c1cnc2ccccc2n1	-0.3	-0.82

Next records.
no.	mol	AID504770	CapD inh
91	O=C(Nc1n[nH]c(C(=O)O)n1)c1ccc(Br)cc1	nt	0.3
92	CCOC(=O)C1(C2(O)C(=O)c3ccccc3C2=O)CCCC1=O (stereo not drawn)	-0.85	-0.46
93	c1ccc(CSc2nncn2-c2ccc3c(c2)OCCO3)cc1	-0.35	-0.49
94	O=C(Cn1c(=O)c2cccn2c2ccc(F)cc21)NCCN1CCCCCC1	-1.1	3.6
95	CC(C)(C)c1ccc(-c2noc(-c3ccccc3S(C)(=O)=O)n2)cc1	nt	0.14
96	Cc1ccc(-n2c(SCc3cc(C)on3)nc3sc(C)c(C)c3c2=O)c(C)c1	1.1	nt
97	CC(O)c1nc2ccccc2n1Cc1ccc(Cl)cc1Cl (stereo not drawn)	0	0.11
98	COC(=O)Cn1cnc2c(nnn2Cc2ccc(Cl)cc2)c1=O	-0.05	1.6
99	CC(C)(C)c1nnc(-c2cccc(NS(=O)(=O)c3ccc(-c4ccon4)s3)c2)o1	-0.1	3.5
100	O=C1CCCCC(=O)c2ccccc2N1	0.15	nt
101	O=C(CCc1c[nH]c2ccccc12)Oc1ccc2c(c1)OCO2	-0.35	nt
102	O=C(NC1=C(C(=O)c2ccccc2)N(Cc2ccccc2)S(=O)(=O)c2ccccc21)c1ccccc1	-0.35	73
103	CN(CC(=O)N(Cc1cccs1)c1ccc2c(c1)OCCO2)Cc1ccco1	-0.4	nt
104	O=C(NC1CCS(=O)(=O)C1)c1cccc(C(F)(F)F)c1 (stereo not drawn)	-0.45	nt
105	CCNC(=S)Nc1c(C)cccc1C	0.1	-0.14
106	CCOc1ncccc1C(=O)N(C)Cc1c(C)nn(-c2ccccc2)c1C	-0.05	nt
107	O=C(NC1CCCCC1)C(c1ccco1)N(C(=O)C1COc2ccccc2O1)c1cccc(F)c1 (stereo not drawn)	0.65	nt
108	CCOCCn1cnc2sc(C(=O)NCCN3CCOCC3)c(C)c2c1=O	nt	6.1
109	CCOC(=O)CSc1nc2nccnc2c(=O)n1CCc1ccccc1	0.5	0.71
110	N=Cc1cc(-c2ccccc2)oc1S	-0.55	0.1
111	COC(=O)c1cc(-c2ccc(S(=O)(=O)NCc3ccncc3)cc2)c(C(F)(F)F)s1	0.5	-0.75
112	COc1ccc(N(CC(=O)NCCSc2ccccn2)S(=O)(=O)c2ccc(C)cc2)cc1OC	nt	0.32
113	COc1ccccc1CCNC(=O)c1cnn2c(C(F)F)cc(C)nc12	-0.3	0.87
114	Cc1nc(N=Nc2c(O)[nH]c3ccccc23)c2c3c(sc2n1)CCCC3	0.05	nt
115	Cc1nc(=O)c(-c2ccccc2)c(C)n1-c1ccc(C(=O)O)cc1	-0.15	65
116	COC(=O)C(C)n1cnc2c(cnn2-c2ccc(F)cc2)c1=O (stereo not drawn)	0.9	0.09
117	O=C(CSc1cccc[n+]1[O-])c1ccc(Cl)s1	-0.6	-0.74
118	CC(=O)Nc1cc2c3c(c1)CC(=O)N3CCC2	-0.3	nt
119	Cc1ccccc1Cn1cnc2sc(C)c(C)c2c1=O	-0.2	0.42
120	Cc1nn(CC(C)C)c(C)c1CC(=O)O	-0.7	nt
121	O=C(C1CC1)N1N=CCC1(O)C(F)(F)F (stereo not drawn)	-0.2	nt
122	CC(=O)NC1=NC(=O)/C(=C/c2ccc(OCc3ccccc3F)cc2)S1	nt	0.47
